# Screens deposited in PubChem BioAssay by National Center for Advancing Translational Sciences (NCATS).
# Methyltransferases: Primary Screen for Target Class Profiling of Small Molecule Inhibitors of Methyltransferases. actives 3.9% (n = 25,000). AID 1745853, 2022. purified enzyme, MTase-Glo SAH luminescence; hits give low values. calls only at 40 µM; active = -50% or lower on at least one of six enzymes; inconclusive = the cases between; inactive = as a rule above -30% on all six;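 note: enzymes were COMT GAMT GNMT HNMT NNMT and PNMT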
#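 Each enzyme was assayed with SAM and its substrate. SAH formation detected by MTase-Glo luminescence; single-point 40 uM screen[…].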
# Calls only; i = inactive; ? = inconclusive; + = active, no number. % is set by controls: 0 for no effect and ±100 for the full control effect.
SMILES,Methyltransferases
CCn1c(=O)n(CC)c2cc(S(=O)(=O)Nc3ccc(Br)c(C)c3)c(Cl)cc21,i
COC(=O)[C@H](CC1CCCCC1)NC(=O)[C@@H]1C[C@@H](NC(=O)Nc2cccc(F)c2)CCN1C(=O)CCC(=O)O,i
CCCn1c(=O)c2ccc(C(=O)NC(C)C)cc2n2c(=O)n(CC(=O)Nc3cccc(F)c3)nc12,i
CSCC(=O)NCCC[C@H](NC(=O)[C@@H]1[C@@H](NC(=O)NC2CCCCC2)CCN1C(=O)CSC)C(N)=O,i
Cc1ccc(-c2ncccn2)c(C(=O)N2C[C@H](COc3ccc(F)cn3)CC[C@H]2C)c1,i
Cc1ccc(Cn2c(=O)c3ccccc3n3c(=O)n(CC(=O)Nc4ccccc4F)nc23)cc1,i
CC(C)Cn1c(=O)c2ccc(C(=O)NC(C)C)cc2n2c(SCC(=O)NC3CCCC3)nnc12,i
CCn1ncc(CN2CCCCCNC(=O)[C@@H]3CCC[C@@H]32)c1C,i
COc1ccc2c(c1)C=C1Cn3c-2c(C2CCCCC2)c2ccc(cc23)C(=O)NS(=O)(=O)N(C)CCOCCN(C)C1=O,?
O=C(Cn1nc2nc(Nc3ccc(F)cc3)ccn2c1=O)Nc1ccc(F)cc1F,i
CC(C)CNC(=O)c1ccc2c(=O)n(C(C)C)c3nn(Cc4ccccc4)c(=O)n3c2c1,i
O=C1[C@@H]2C[C@@H](CN2Cc2ccc3c(c2)OCO3)Oc2ccccc2N1CC1CC1,i
CC(C)n1c(=O)sc2cc(NS(=O)(=O)c3ccc4c(c3)n(C)c(=O)n4C)ccc21,i
COc1cccc(CNc2nc3c(-c4cccc(F)c4)nnn3c3ccccc23)c1,i
O=C(Cn1c(=O)oc2cc(S(=O)(=O)NC3CCCC3)ccc21)N1CCCC1,i

# An excerpt of the results above:
SMILES,Methyltransferases
CC(C)n1c(=O)sc2cc(NS(=O)(=O)c3ccc4c(c3)n(C)c(=O)n4C)ccc21,i
COc1cccc(CNc2nc3c(-c4cccc(F)c4)nnn3c3ccccc23)c1,i

# (list continues)
SMILES,Methyltransferases
CCc1cc(=O)n(CC(=O)N2CCN(c3ccccc3OC)CC2)c(-c2ccccc2)n1,i
Cc1ccc(NS(=O)(=O)c2cc3c(cc2C)n(C)c(=O)n3C)cc1,i
CC(C)=CCN1Cc2ccccc2NC(=O)C12CCNC2 (stereo not given),i
CC1=C(/C=C/C(C)=C/C=C/C(C)=C/C(=O)Nc2ccc(O)cc2)C(C)(C)CCC1,i
CCOc1ccc(CNC(=O)Cn2ccc3cc(S(=O)(=O)N4CCCC4)ccc32)cc1,i
CCc1ccc(CNC(=O)CN2C(=O)NC3(CCOCC3)C2=O)cc1,i
CC(C)CCNC(=O)C1(C)Cn2nc(C(=O)NCCc3c[nH]c4ccccc34)cc2C(=O)N1C (stereo not given),i
CCCCn1c(=O)n(Cc2ccccc2F)c(=O)c2[nH]c(Cc3ccc(NC(C)=O)cc3)nc21,?
CCc1cc2c(cc3n2CC(C)(C(=O)NC2CCCCC2)N(c2cc(Cl)ccc2C)C3=O)s1 (stereo not given),i
C[C@@H]1CC[C@]2(C(=O)O[C@@H]3O[C@H](CO)[C@@H](O)[C@H](O)[C@H]3O)CC[C@]3(C)C(=CCC4[C@@]5(C)C[C@@H](O)[C@H](O)C(C)(C)C5CC[C@]43C)C2[C@]1(C)O (stereo not given in full),i
O=S(=O)(c1ccc2[nH]c3c(c2c1)CCCC3)N1CCN(c2cccc(C(F)(F)F)c2)CC1,i
CC(=O)NCCc1c[nH]c2ccc(O)cc12,?
CCC(C)NC(=O)c1ccc2c(=O)n(C)c3nn(Cc4ccc(F)cc4)c(=O)n3c2c1 (stereo not given),i
O=C(Nc1cccc(-c2ccc(N3CCOCC3)nn2)c1)Nc1ccc(F)cc1F,i
Cc1ccc(CN2C(=O)c3nc4ccccc4n3CC2(C)C(=O)NC2CCCCC2)cc1 (stereo not given),i
CC1(C(=O)NC2CCCCCC2)Cn2nc(-c3cccs3)cc2C(=O)N1c1ccc(F)cc1 (stereo not given),i
CCn1cc(CN2CC(Oc3ccc(-c4noc(-c5cccnc5)n4)cc3)C2)cn1,?
COc1ccc(OC)c(CN2C(=O)c3cc(-c4ccccc4)nn3CC2(C)C(=O)NCc2ccccc2)c1 (stereo not given),i
COc1ccccc1CN1C(=O)c2cc3ccccc3n2CC1(C)C(=O)NC1CCCC1 (stereo not given),i
CC(C)OCCCNC(=O)C1(C)Cn2c(cc3ccccc32)C(=O)N1Cc1cccc(F)c1 (stereo not given),i
COc1ccccc1CCNC(=O)Cn1ccc2cc(S(=O)(=O)N3CCCC3)ccc21,i
Cc1cn(-c2cc(NC(=O)c3ccc(C)c(Nc4nccc(-c5cnccn5)n4)c3)cc(C(F)(F)F)c2)cn1,i
CC1CCCC(NC(=O)C2(C)Cn3c(ccc3-c3ccco3)C(=O)N2Cc2ccc(F)cc2)C1C (stereo not given),i
Cc1ccc(N2C(=O)c3cc(-c4ccco4)nn3CC2(C)C(=O)NC2CCCCC2)c(C)c1 (stereo not given),i
CC(=O)Nc1c2n(c3ccc(F)cc13)CC(C)(C(=O)NC1CCCC1)N(Cc1ccc(F)cc1)C2=O (stereo not given),i
CCCS(=O)(=O)NCC1Cn2cccc2C(=O)N1CCOC (stereo not given),i
N[C@H](C(=O)O)[C@H]1C[C@@H]1C(=O)O,i
Cc1ccc(N2C(=O)c3ccc(-c4ccco4)n3CC2(C)C(=O)NC2CCCC2)cc1 (stereo not given),i
COc1ccccc1CC(=O)N1CCC2(CC1)N=C(c1ccc(C)cc1)NO2,i
Cc1cc(-c2nn(-c3ccccc3F)cc2CN(C)C(C)c2ccon2)c(C)s1 (stereo not given),i
c1ccc(-c2noc(CC3CCOC4(CCN(Cc5cccnc5)CC4)C3)n2)cc1 (stereo not given),i
CC(C)CNC(=O)c1ccc2c(=O)n(CC(C)C)c3nn(CC(=O)NC(C)(C)C)c(=O)n3c2c1,i
Cc1nc(N)ncc1-c1nc(N2CCOCC2)c2sc(C(C)(C)O)cc2n1,i
COc1ccc(-c2ccn(CC[C@](C)(C(=O)NO)S(C)(=O)=O)c(=O)c2)c(F)c1,i
Cc1cccc(CNC(=O)c2ncn3c2C(=O)N(C2CC2)C(C)(C(=O)NCc2cccc(C)c2)C3)c1 (stereo not given),i
C[C@@H]1C(=O)O[C@H]2[C@@H](O)C34[C@H]5C[C@@H](C(C)(C)C)C36[C@@H](OC(=O)[C@@H]6O)O[C@@]4(C(=O)O5)[C@@]12O (stereo not given in full),?
COCC(=O)NC1CCC12CCN(C(=O)c1ccc3ccccc3n1)CC2 (stereo not given),i
Cn1c(=O)c2ccc(C(=O)NC3CCCCC3)cc2n2c(SCC(=O)NC3CCCC3)nnc12,i
CCc1noc([C@@H]2CC(F)(F)CN2C(=O)c2ccn(CC)n2)n1,i
CCc1nc2c(=O)n(CC(=O)NC(C)c3ccc(F)cc3)nc(C)c2s1 (stereo not given),i
COc1ccc(OC)c(CNC(=O)c2cc3n(n2)CC(C)(C(=O)NCCC(C)C)N(C)C3=O)c1 (stereo not given),i
COc1ccc(CNc2nc3c(-c4ccccc4)nnn3c3ccccc23)cc1,i
CCOc1ccc(N2C(=O)c3cc4ccc(OC)cc4n3CC2(C)C(=O)NC2CCCC2)cc1 (stereo not given),i
CCCCN1C(=O)c2cc(C(=O)NCc3cccs3)nn2CC1(C)C(=O)NC1CCCC1 (stereo not given),i
C[C@H](O)[C@H](O)/C=C/c1cccc(O)c1CO,i
COc1ccc(OCC2CN(CC3CC3)[S+](=O)([O-])c3cnccc3O2)cc1 (stereo not given),i
Cc1ccc(NC2=CC(=O)c3sc(C)nc3C2=O)cc1,+
CCCC1CCN(C(=O)c2coc(COc3ccc4ccc(OC)cc4c3)n2)C1 (stereo not given),i
CCN1CCN(C(=O)c2ccc3nc(-c4cccc(C)n4)oc3c2)CC1,i
CN1C(=O)c2cc(C(=O)NCCCN3CCCC3=O)nn2CC1(C)C(=O)NCc1ccc(F)cc1 (stereo not given),i
CCCn1c(=O)c2ccc(C(=O)NC(C)CC)cc2n2c(=O)n(CC(=O)Nc3cc(C)cc(C)c3)nc12 (stereo not given),i
CNC(=O)C1(N2CCC[C@H]2C(=O)NCCNC(C)=O)CCCCC1,i
CCC(C(=O)NCc1cccc(OC)c1)n1ccc2cc(S(=O)(=O)N3CCCCC3)ccc21 (stereo not given),i
O=C(Cn1ccc2cc(S(=O)(=O)N3CCCCC3)ccc21)N1CCN(c2ccccc2)CC1,i
CC(C)NC(=O)c1ccc2c(=O)n(C(C)C)c3nn(Cc4cccc(Cl)c4)c(=O)n3c2c1,i
CC(CNC(=O)Cn1ccc2cc(S(=O)(=O)N3CCCC3)ccc21)c1ccccc1 (stereo not given),i
CC(C)CCn1c(=O)c2ccccc2n2c(SCC(=O)Nc3ccc(F)cc3F)nnc12,i
COCC1CN(C(=O)c2ccc(OC)nc2OC)CC12CCNCC2 (stereo not given),i
Cc1ccc(N2C(=O)c3ccc(-c4ccco4)n3CC2(C)C(=O)NCc2ccc(Cl)cc2)cc1F (stereo not given),i
C=C(C)C(=O)OC1CC(CO)CCC/C(CO)=C/C2OC(=O)C(=C)C21 (stereo not given),i
# The list continues:
SMILES,Methyltransferases
Cc1ccc(C)c(S(=O)(=O)N2[C@@H]3CC[C@H]2CC(NC(=O)c2ccc(F)cc2)C3)c1 (stereo not given in full),i
O=C(CCc1nnn2c1CN(S(=O)(=O)c1ccccc1)CC2)NCc1ccccc1,i
O=c1[nH]c2ccc(S(=O)(=O)NCCO)cc2[nH]1,i
O=C1c2c(O[C@@H]3O[C@H](CO)[C@@H](O)[C@H](O)[C@H]3O)cc(O)cc2OC1(O)Cc1ccc(O)cc1 (stereo not given in full),i
COc1cccc(S(=O)(=O)N2CCC(OCCOCc3ccccc3)CC2)c1,i
COc1ccc(CN2C(=O)c3nc4ccccc4n3CC2(C)C(=O)NC2CCCCCC2)cc1 (stereo not given),i
CCOC(=O)c1cc2n(n1)CC(C)(C(=O)NC1CCCCC1)N(c1cccc(CC)c1)C2=O (stereo not given),i
COc1ccc(OC)c(CNC(=O)c2cccc3c2CCN3C(=O)c2ccc(F)cc2)c1,i
CC(C)CCN1C(=O)c2ccc(-c3ccccc3)n2CC1(C)C(=O)NC1CCCCCC1 (stereo not given),i
CCc1cc2c(cc3n2CC(C)(C(=O)NC2CCCCCC2)N(c2ccccc2C)C3=O)s1 (stereo not given),i
O=C1NC(=O)C(c2cnc3ccccn23)=C1c1cn2c3c(cccc13)CN(C(=O)N1CCOCC1)CC2,i
Cn1cccc1CN1CCC2(CC1)COc1ccccc1[S+](=O)([O-])N2,i
C=CC(C)(O)CC/C=C(/C)COC(=O)C(C)C1CCC(C)(C=C)O1 (stereo not given),i
Cc1cccc(C2c3cccn3-c3sc4c(c3CN2C(=O)Nc2ccc3c(c2)OCCO3)CCCC4)c1 (stereo not given),i
c1ccc(OCCCn2cc(-c3cncnc3)nn2)cc1,i

# Arranged by count of non-hydrogen atoms (highest first): part of the list above.
SMILES,Methyltransferases
O=C1NC(=O)C(c2cnc3ccccn23)=C1c1cn2c3c(cccc13)CN(C(=O)N1CCOCC1)CC2,i
Cc1ccc(N2C(=O)c3ccc(-c4ccco4)n3CC2(C)C(=O)NCc2ccc(Cl)cc2)cc1F (stereo not given),i
COc1ccc(CN2C(=O)c3nc4ccccc4n3CC2(C)C(=O)NC2CCCCCC2)cc1 (stereo not given),i
CCc1cc2c(cc3n2CC(C)(C(=O)NC2CCCCCC2)N(c2ccccc2C)C3=O)s1 (stereo not given),i
O=C1c2c(O[C@@H]3O[C@H](CO)[C@@H](O)[C@H](O)[C@H]3O)cc(O)cc2OC1(O)Cc1ccc(O)cc1 (stereo not given in full),i
O=C(CCc1nnn2c1CN(S(=O)(=O)c1ccccc1)CC2)NCc1ccccc1,i
Cc1ccc(C)c(S(=O)(=O)N2[C@@H]3CC[C@H]2CC(NC(=O)c2ccc(F)cc2)C3)c1 (stereo not given in full),i
COc1cccc(S(=O)(=O)N2CCC(OCCOCc3ccccc3)CC2)c1,i
Cn1cccc1CN1CCC2(CC1)COc1ccccc1[S+](=O)([O-])N2,i
C=CC(C)(O)CC/C=C(/C)COC(=O)C(C)C1CCC(C)(C=C)O1 (stereo not given),i
c1ccc(OCCCn2cc(-c3cncnc3)nn2)cc1,i
O=c1[nH]c2ccc(S(=O)(=O)NCCO)cc2[nH]1,i

# Other records follow.
SMILES,Methyltransferases
C=C1CO[C@@]2(O[C@H]3CC4C5CC=C6C[C@@H](O)C[C@@H](O[C@@H]7OC[C@H](O)[C@H](O[C@@H]8OC[C@@H](O)[C@H](O)[C@H]8O)[C@H]7O[C@@H]7O[C@@H](C)[C@H](OC(C)=O)[C@@H](OC(C)=O)[C@H]7OC(C)=O)[C@]6(C)C5CC[C@]4(C)[C@@H]3[C@@H]2C)[C@@H](O)[C@H]1OC1OC(C)C(O)C(O)C1O (stereo not given in full),i
CC(=O)N[C@@H]1CCNC[C@@H]1c1nc(-c2ccccc2)no1,i
COc1ccc(OC)c(S(=O)(=O)N2CCCCC2c2noc(COCC3CC3)n2)c1 (stereo not given),i
CCN1C(=O)C=CC1=O,i
Cc1[nH]c2ccccc2c1C(=O)Cn1nc2n(Cc3ccc(F)cc3)c(=O)c3ccccc3n2c1=O,i
CC1(C(=O)NC2CCCCCCC2)Cn2c(cc3occc32)C(=O)N1CC1CCCO1 (stereo not given),i
CC1CCC(NC(=O)C2(c3ccccc3)Cn3c(cc4sccc43)C(=O)N2Cc2ccc(F)cc2)CC1 (stereo not given),i
COC[C@H]1C[C@@H](NC(=O)c2c(-c3ccccc3)noc2C)[C@H](O)[C@@H]1O,i
CC1CCCC(NC(=O)Cn2c(=O)oc3cc(S(=O)(=O)N4CCCC4)ccc32)C1C (stereo not given),i
CC(C)N1C[C@H](O)C[C@H]1c1nnc2n1CCN(C(=O)CCc1c[nH]c3ccccc13)CC2,i
CCCN(CC1CC1)c1nc(C)nc(Nc2c(Cl)cc(Cl)cc2Cl)c1Cl,i
O=C(c1ccccn1)N1CCC2(CNc3ccccc3[S+](=O)([O-])N2)C1 (stereo not given),i

# Some of the compounds tested; count on the stated rates, not on these rows.
